VACV mCherry inh = qHTS for Stage-Specific Inhibitors of Vaccinia Orthopoxvirus: mCherry Reporter Primary qHTS; Vaccinia virus mCherry reporter infection, fluorescence; about a quarter of the inactives have no number; Potency, µM (titrated, usually from 36.5 µM), for the others: top-dose activity change, negative = inhibition, most hits filed as inhibitors; 310,000 tested, 0.63% active; AID 720579, 2013; active = well fitted inhibition curve with a large enough effect; inconclusive = small, poorly fitted or top-dose-only effect; inactive = no such curve, though single readings can be large or run the other way; tested in A549 cells; further: nearly all actives have a fitted effect of over 35% in size; inactives centre near -10
Vaccinia Venus = qHTS for Stage-Specific Inhibitors of Vaccinia Orthopoxvirus: Venus Reporter Primary qHTS | 330,000 tested, 0.46% active | AID 720580, 2013 | Vaccinia virus Venus reporter expression, fluorescence | Potency, µM (doses to about 36.5 µM), for inactives: at the highest dose activity change, negative = inhibition, usual class: inhibitors; active means well fitted inhibition curve with a large enough effect; inconclusive means small, poorly fitted or top-dose-only effect; inactive means no such curve, though single readings can be large or run the other way; tested in A549 cells; further: nearly all actives have a fitted effect of over 30% in size; inactives centre near -10
An asterisk follows results filed as active; i = inactive; ? = inconclusive; / = not tested or not shown; & = joins results of further samples; [ ] = remark or other dose. On the % scale 0 is the no-effect control and ±100 the full control effect; potency means the concentration at half of the fitted maximal effect.

SMILES	VACV mCherry inh	Vaccinia Venus
Cc1cc(C)c2c(=O)[nH]c(SCc3ccc([N+](=O)[O-])cc3)nc2n1	i	0.0%
C=CCNc1nc2ccccc2nc1NS(=O)(=O)c1ccc(OC)cc1	i	-10.6%
CCOc1ccc(Nc2nc(Cl)nc(NCCO)n2)cc1	-20.2%	-14.0%
CP(=O)(O)C1=CCNCC1	-8.1%	-5.1%
O=C(Nc1ccccc1)c1cc([N+](=O)[O-])ccc1NC1CCCCC1	i	-9.3%
COc1ccccc1CN1CCNC(=O)C1CC(=O)NC1CCCCCC1 (stereo not drawn)	i	-8.4%
CCC(=O)N1CCc2cc(Br)cc(S(=O)(=O)CCC(=O)N3CCN(c4ccc(F)cc4)CC3)c21	-14.2%	0.1%
NCCC(=O)N[C@H](Cc1cnc[nH]1)C(=O)O	i	0.0%
O=C(NCc1ccccn1)c1cc(-c2ccncc2)nc2ccccc12	-16.0%	-11.3%
CC(C)C(=O)Nc1cccc(C(=O)Nc2nccs2)c1	-8.3%	-9.5%

3 entries drawn at random from the list so far:
SMILES	VACV mCherry inh	Vaccinia Venus
COc1ccccc1CN1CCNC(=O)C1CC(=O)NC1CCCCCC1 (stereo not drawn)	i	-8.4%
O=C(Nc1ccccc1)c1cc([N+](=O)[O-])ccc1NC1CCCCC1	i	-9.3%
CC(C)C(=O)Nc1cccc(C(=O)Nc2nccs2)c1	-8.3%	-9.5%

Going on with the list.
SMILES	VACV mCherry inh	Vaccinia Venus
COC(=O)CSc1nc(C)c2ccc(OC)cc2n1	-11.3%	-7.1%
COc1cn(CC(=O)Nc2ccc(C)cc2)c(CN2CCCCC2)cc1=O	-15.1%	-8.7%
Cc1csc(SC(C)C(=O)Nc2ccc(Cl)cn2)n1 (stereo not drawn)	i	-16.6%
N#Cc1nc(N(c2ccccc2)c2ccccc2)nc(-n2cccc2)n1	-24.7%	-14.8%
Cc1ccc(Cn2cnc3nc4c(cc3c2=O)CCCC4)cc1	-2.7%	-5.3%
O=C(/C=C/c1ccccc1)Nc1cccc(S(=O)(=O)Nc2ccccc2F)c1	-3.2%	-25.4%
CC(=O)c1ccc(OC(=O)CCN2c3ccccc3Sc3ccccc32)cc1	-5.5%	-4.5%
Cc1nc(-c2ccc(F)cc2)c(CC(=O)N2CCN(S(=O)(=O)c3ccccc3Br)CC2)s1	-7.0%	-23.5%
O=C(CCN1C(=O)/C(=C/C=C/c2ccccc2)SC1=S)Nc1nccs1	-8.2%	-4.2%
CC(C(=O)N1CCc2ccccc21)N1CCN(Cc2ccc(Cl)cc2)CC1 (stereo not drawn)	-26.2%	-1.2%
O=S(=O)(c1cccc(F)c1)N1CCN(c2nc(-c3cccs3)nc3ccccc23)CC1	-4.2%	-11.6%
Cc1c(NC(=O)c2cn3ccccc3n2)cccc1-n1cnnn1	-19.1%	-6.8%
O=C(N/N=C/c1ccccn1)C(=O)N1CCCCCC1	-17.4%	-5.3%
CC1CCCC(C)N1S(=O)(=O)c1ccc(NC(=O)CNC2CCCC2)cc1 (stereo not drawn)	i	-13.2%
Cc1cccc(-c2nn(-c3ccccc3)cc2C(=O)N2CCN(C3CCS(=O)(=O)C3)CC2)c1 (stereo not drawn)	-0.3%	-20.2%
CCOc1ccc(NC(=O)Nc2cccc(C(=O)O)c2)cc1	-15.0%	-18.0%
c1ccc(CNc2ncnc3sc4c(c23)CCCC4)nc1	-11.7%	-13.1%
C=CCN(c1ccc(C(=O)N2CCCC2)cc1)S(C)(=O)=O	-11.6%	-7.1%
Cc1cn([C@H]2C=C[C@@H](CO)O2)c(=O)[nH]c1=O	-16.6%&-6.7%	-12.0%&-6.1%
O=[N+]([O-])c1ccc2oc(-c3ccccc3)nc2c1	-6.7%	3.4%
Cc1ccc(N=C2NC(=O)/C(=C/c3cccnc3)S2)c(C)c1	-2.8%	-21.5%
O=C(OCC(F)(F)F)c1cccc(COc2ccc3ccccc3c2)c1	/	?
O=C(NCCc1ccccc1)C(=O)Nc1nccs1	-12.1%	-1.2%
COc1ccc(Nc2nnc(SC(C(=O)Nc3cc(C)ccc3C)c3ccccc3)s2)cc1 (stereo not drawn)	-2.2%	-2.3%
CCOC(=O)C1(C)CCN1C(=O)c1cccc(OC(F)(F)F)c1 (stereo not drawn)	i	-6.6%
COc1ccc2cc(CNc3ccc(C)cc3)c(=O)n(CC(=O)Nc3ccc(OC)c(Cl)c3)c2c1	-11.0%	5.0%
CC(C)c1ccc(/C=C2\C=Cc3ccccc32)cc1	17.5%	-4.5%
CC(=O)c1ccc(N=Nc2ccc(C)cc2)cc1	?	-9.2%
C=CCN1c2ccccc2[C@]23C[C@@H](C(=O)OC)N(C(=O)NCCC)C2=NC(C(=O)OC)=C(C(=O)OC)[C@H]13	i	42.3%[activator]
CCCCOc1ccc(CC(=O)N(C)OC)cc1	24.5%	-14.3%
Nc1nc(CSc2ncccn2)nc(Nc2ccccc2)n1	-7.8%	-6.5%
Cc1ccc(NC(=O)COC(=O)Cn2cnc3c2c(=O)n(C)c(=O)n3C)cc1F	-0.9%	-18.7%
COc1ccc(CNC(=O)c2cc3c(=O)n(C)c4ccccc4c3n2C)cc1	3.1%	4.9%
C/C(=N\NC(=O)COc1ccccc1F)c1cc2ccccc2o1	?	-25.1%
COc1cc(C)nc(OCCNC(=O)COc2ccc(Cl)cc2Cl)n1	/	-14.2%
CCN(CC)CCNC(=O)c1c(C)oc2ncn(C)c(=O)c12	-15.6%	-9.1%
O=C(CSc1ncccc1-c1nc2ccccc2[nH]1)N1CCc2ccccc21	-29.5%	-19.6%
O=C(Oc1ccccc1OC(=O)N1CCOCC1)N1CCOCC1	7.4%	4.4%
Cc1nc(SCC(=O)NCC2CCCO2)[nH]c(=O)c1C (stereo not drawn)	-18.9%	-17.1%
CC(C)CN(CC(C)C)C(=O)c1cc2c(=O)n3ccccc3nc2s1	-17.5%	-8.2%
O=C(CSc1nnc2ccc(-c3ccncc3)nn12)Nc1ccc(F)cc1	-9.8%	2.2%
Cc1cccc(NC(=O)CCSc2ccccn2)c1	i	-10.4%
CC1(C)OC2OC(C(=O)N/N=C/c3ccccc3F)C3OC(C)(C)OC3C2O1 (stereo not drawn)	-1.7%	-9.6%
CC12CCC3C(CCC4(O)CC(O)CCC34C=NO)C1(O)CCC2C1=COC(=O)C1 (stereo not drawn)	31.6µM*	0.398µM*
O=C(c1cccnc1)N(Cc1ccccc1)C(c1ccccc1)c1nc2ccccc2[nH]1 (stereo not drawn)	34.2%[activator]	-4.0%
CCOc1ccc(NCc2cccn2-c2nnc(N3CCC(C(=O)NCCCN4C(C)CCCC4C)CC3)s2)cc1 (stereo not drawn)	?	-20.5%
CN(CCOC(=O)c1ccc2c(c1)OCCO2)Cc1ccccc1	-13.6%	-7.1%
O=C1N/C(=N/N=C/c2ccc(O)cc2)SC1Cc1ccccc1 (stereo not drawn)	?	-7.1%
CC(C)c1nn2c(=O)cc(COC(=O)c3cccc(NC(=O)c4ccccc4F)c3)nc2s1	-0.5%	-18.3%
CCCCOC(=O)c1ccc(NC(=O)CSc2nc3c(c(=O)[nH]2)CCC3)cc1	-2.5%	5.8%

Additional compounds follow.
SMILES	VACV mCherry inh	Vaccinia Venus
Cc1ccc(N(C(=O)c2snc(C(N)=O)c2N)C(C(=O)NCc2ccccc2)c2ccncc2)c(C)c1 (stereo not drawn)	i	-6.7%
O=C(C[C@@H]1C/C=C\CC[C@H](Cc2ccc(F)cc2)C(=O)OC[C@@H]2CCCN2C1=O)NCCO	i	-19.6%
CCOc1ccc(Nc2sc(C(=O)c3ccc(F)cc3)c(N)c2S(=O)(=O)c2ccc(C)cc2)cc1	-11.1%	0.5%
CNC[C@@H]1Oc2ccc(NS(=O)(=O)c3ccc(OC)cc3)cc2CC(=O)N([C@H](C)CO)C[C@@H]1C	i	-3.3%
COc1ccc(NC(=O)C2Cc3c(-c4ccccc4Oc4ccccc4)ccnc3O2)cc1 (stereo not drawn)	-13.1%	8.0%
COc1cc(NC(=O)CSCc2ccc(Cl)cc2Cl)c(C(=O)O)cc1OC	i	-1.7%
CCOc1ccc2nc3c(cc2c1)CN(CCOC)C(=NCCOC)S3	-15.3%	-19.3%
CCN(c1ccccc1)S(=O)(=O)c1ccc(NC(=O)c2nc(S(C)(=O)=O)ncc2Cl)cc1	?	?
O=C(NCc1ccco1)c1c2c(nc3ccccc13)CCC2	-4.9%	5.0%
Cc1cc(NC(=O)COC(=O)C2CC(=O)N(c3ccccc3Cl)C2)no1 (stereo not drawn)	-11.8%	1.5%
O=C1CCCCCCC(=O)[C@H](O)C[C@H](c2ccccc2)O1	1.6%	10.7%
COc1ccc(OC)c(CCNC(=O)c2c(C)oc3ncn(CC(C)C)c(=O)c23)c1	-18.3%	-9.7%
CCC(C)C(=O)Nc1nc(C)c(-c2csc(Nc3ccc(Cl)cc3)n2)s1 (stereo not drawn)	?	?
O=C(CC1Oc2ccccc2NC1=O)NCCCN1CCN(Cc2ccccc2)CC1 (stereo not drawn)	i	-9.0%
C/C(CC(=O)Nc1ccc(C)c(Cl)c1)=N\NC(=O)C1CCCCC1	i	-15.7%
COCCCN1C(=O)c2[nH]nc(-c3cc(C)ccc3O)c2C1c1ccc(F)cc1 (stereo not drawn)	-7.2%[7.34 µM]	-4.5%[7.34 µM]
CC1(C)CC(=O)C(C=NCCN2CCN(C(=O)C34CC5CC(CC(C5)C3)C4)CC2)=C(O)C1	-5.4%	-20.3%
O=C(OCN1C(=O)c2ccccc2C1=O)c1cccnc1SC(F)F	-7.1%	2.8%
NCCCCCCNS(=O)(=O)c1cccc2c(Cl)cccc12	-8.1%	-20.9%
O=C(CCCN1C(=O)S/C(=C\C=C\c2ccccc2)C1=O)Nc1ccc(C(=O)O)cc1	-10.4%	-6.8%
COc1ccc(S(=O)(=O)N2CCCCC2)cc1NC(=O)C1CC(=O)N(c2ccc3c(c2)OCCO3)C1 (stereo not drawn)	-1.7%	-17.6%
CN(CC(=O)Nc1ccc(Cl)c(C(F)(F)F)c1)C(=O)C1CSC2(C)CCC(=O)N12 (stereo not drawn)	-27.0%	-27.7%
COc1ccc(CN(Cc2ccccc2)C(=O)c2cccc(C#N)c2)cc1COc1ccc(NC(C)=O)cc1	-3.5%	-20.8%
CCOc1ccc(Oc2nc(C)cc(OC)n2)nn1	i	0.9%
CCOc1ccc(C(=O)COC(=O)CC)cc1	/	-12.1%
CCc1cc2cc(C)c(C)cc2nc1SCC(=O)Nc1cc(C)on1	-14.9%	-7.2%
COC(=O)C(Cc1ccc(O)cc1)NC(=O)C(C)Oc1ccccc1 (stereo not drawn)	-14.4%	-16.6%
CC1=NN(C(=O)c2ccc(Cn3ccc([N+](=O)[O-])n3)cc2)C(O)(C(F)(F)F)C1 (stereo not drawn)	-7.3%	-9.8%
CCOC(=O)c1cccc(NC(=O)c2cc(CN3CCOCC3)on2)c1	4.3%	-1.7%
Cn1nnc2cc(C(=O)NC3CCCCC3)ccc21	-15.4%	-14.1%

Among those listed so far, these have an NH in an aromatic ring:
SMILES	VACV mCherry inh	Vaccinia Venus
Cc1cc(C)c2c(=O)[nH]c(SCc3ccc([N+](=O)[O-])cc3)nc2n1	i	0.0%
NCCC(=O)N[C@H](Cc1cnc[nH]1)C(=O)O	i	0.0%
Cc1cn([C@H]2C=C[C@@H](CO)O2)c(=O)[nH]c1=O	-16.6%&-6.7%	-12.0%&-6.1%
O=C(CSc1ncccc1-c1nc2ccccc2[nH]1)N1CCc2ccccc21	-29.5%	-19.6%
Cc1nc(SCC(=O)NCC2CCCO2)[nH]c(=O)c1C (stereo not drawn)	-18.9%	-17.1%
O=C(c1cccnc1)N(Cc1ccccc1)C(c1ccccc1)c1nc2ccccc2[nH]1 (stereo not drawn)	34.2%[activator]	-4.0%
CCCCOC(=O)c1ccc(NC(=O)CSc2nc3c(c(=O)[nH]2)CCC3)cc1	-2.5%	5.8%
COCCCN1C(=O)c2[nH]nc(-c3cc(C)ccc3O)c2C1c1ccc(F)cc1 (stereo not drawn)	-7.2%[7.34 µM]	-4.5%[7.34 µM]

(next part)
SMILES	VACV mCherry inh	Vaccinia Venus
CCOC(=O)c1c(N)n(-c2cccc(OC)c2)c2nc3ccccc3nc12	-14.0%	-2.0%
COc1ccc(-c2csc(NC(=O)CCCc3cccs3)n2)cc1	i	-12.3%
COc1ccc(/C=N/NC(=O)CCC(=O)Nc2ccc(Br)cc2)c(OC)c1	-13.8%	?
CC(C)c1ccc(NC(=O)C2(C)Cc3c(-c4cccc(C(N)=O)c4)ccnc3O2)cc1 (stereo not drawn)	-10.9%	-11.0%
O=C1NC[C@H](Cc2ccccc2)N(C[C@H]2CCCN2C[C@H](Cc2ccc(O)cc2)N2C[C@H](Cc3ccc(O)cc3)N(CC3CCCCCC3)C(=O)C2=O)C1=O	i	-8.2%
COC(=O)c1ccc2nc(NC(=O)C3CC3)sc2c1	-23.2%	-10.2%
Cc1ccc(S(=O)(=O)NCc2c(Cl)cccc2Oc2ccccc2)cc1	-2.2%	-17.0%
CCOc1ccc(-n2c(=O)c3c(C)c(C)sc3n(CC(=O)C(C)(C)C)c2=O)cc1	-10.8%	-5.6%
CCCCNC(=O)CSc1cc(=O)n(C)c2ccccc12	-7.0%	2.0%
Cc1ccccc1Cn1c2ccccc2c2cnn(CC(=O)N3CCN(c4ccccc4)CC3)c(=O)c21	-24.2%	-26.2%
CC1NC(C(=O)O)Cc2c1[nH]c1ccccc21 (stereo not drawn)	-3.8%	-0.2%

High-throughput results from PubChem BioAssay.
